Bioassay records from PubChem.
gsp antag: qHTS for Antagonists of gsp, the Etiologic Mutation Responsible for Fibrous Dysplasia/McCune-Albright Syndrome: qHTS. gsp-mutant cells, cAMP HTRF, 30 min; control for the full effect not named in the record. Potency, µM (highest dose often 76.9 µM), for inactives: top-dose activity change, negative = inhibition, hits mostly inhibitors. hit rate 0.4% among 340,000. AID 624288, 2012; active = falling curve of any shape with a large fitted effect; inconclusive = falling curve, mostly with a smaller effect; inactive = flat or rising curve; cell line not stated here;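 further: intracellular cAMP measured with PDE inhibitor Ro 20-1724 present during compound exposure; potency means the concentration at half of the fitted maximal effect; on the % scale 0 is the no-effect control and ±100 the full control effect; nearly all actives have a fitted effect of over 65% in size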
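HTRF cAMP read-out (cAMP-d2 plus anti-cAMP antibody-K in lysis buffer, 30 min RT). Before lysis, cells are exposed to compounds with […] for 30 min at 37C in DPBS containing Ca/Mg, BSA and Tween 20.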
CtBP-E1A blk: qHTS Assay for Inhibitors of the CtBP/E1A Interaction; hit rate 0.49% among 340,000; activity change, % (test concentration not listed); CtBP / adenovirus E1A interaction (AlphaScreen); AlphaScreen GST-E1A/His-CtBP binding, 1536-well; active compounds read low; control for the full effect not named in the record; in the data active means activity change below about -65%; inconclusive means about -30% to -65%; inactive means above about -30%; further: on the % scale 0 is the no-effect control and ±100 the full control effect
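GST-E1A and His-tagged CtBP (125 nM each as 5X stock) were preincubated with pin-transferred compound for 2 h at 37 °C in the dark, then glutathione donor and nickel acceptor beads were added for 1 h before AlphaScreen reading.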
D2 PAM: Beta-Arrestin HTS for Positive Allosteric Modulators of the Human D2 Dopamine Receptor: Potentiators | D(2) dopamine receptor (Homo sapiens), P14416 | DiscoveRx D2 beta-arrestin cells, luminescence, 90 min; 100% = 57 uM dopamine signal | potentiation, % (test concentration not listed) | hit rate 0.23% among 360,000 | AID 624464, 2012; active = potentiation of 50% or more; inconclusive = 30% to 50%; inactive = 30% or less;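 further: compound concentration not given in the record; tested on top of an EC20 dose of dopamine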
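PathHunter beta-arrestin assay in DiscoveRx D2 cells. Compounds were added with an EC20 of dopamine (50 nM final) for 90 min at 37 deg C. Luminescence was read 1 h after detection reagent, with 57 uM dopamine as the EC100 control.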
gsp ag: qHTS for Agonist of gsp, the Etiologic Mutation Responsible for Fibrous Dysplasia/McCune-Albright Syndrome: qHTS; gsp mutant cells, cAMP HTRF, 30 min; control for the full effect not named in the record; Potency, µM (highest dose often 76.9 µM), for the others: at the top dose activation (cAMP increase), most hits filed as activators; hit rate 0.13% among 340,000; AID 624287, 2012; active = well fitted activation curve with a large enough effect; inconclusive = small, poorly fitted or top-dose-only effect, or another doubt; inactive = no such curve, though single readings can be large or run the other way; cell line not stated here;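 further: phosphodiesterase inhibitor Ro 20-1724 added with compounds to block cAMP breakdown; potency means the concentration at half of the fitted maximal effect; nearly all actives have a fitted effect of over 60% in size; about a fifth of the inactives were tested at one dose only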
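Cells stably selected in G418 were plated at 2000/well, grown 16-24 hr, then given compounds in DMSO with the PDE inhibitor […] (300 uM solution added) for 30 min at 37C; cAMP was read by HTRF.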
Six1-Eya2 blk: qHTS Assay for Inhibitors of the Six1/Eya2 Interaction; AlphaScreen GST-Six1/His-Eya2 binding, biochemical; active compounds read low; control for the full effect not named in the record; activity change, % (concentration not given with the values); AID 651725, 2012; Homeobox protein SIX1 (Homo sapiens) + Protein phosphatase EYA2 (Homo sapiens), …; hit rate 0.56% among 360,000; in the data active = activity change below about -65%; inconclusive = about -30% to -65%; inactive = above about -30%; further: on the % scale 0 is the no-effect control and ±100 the full control effect
Target sequence (O00167 whole entry, looked up): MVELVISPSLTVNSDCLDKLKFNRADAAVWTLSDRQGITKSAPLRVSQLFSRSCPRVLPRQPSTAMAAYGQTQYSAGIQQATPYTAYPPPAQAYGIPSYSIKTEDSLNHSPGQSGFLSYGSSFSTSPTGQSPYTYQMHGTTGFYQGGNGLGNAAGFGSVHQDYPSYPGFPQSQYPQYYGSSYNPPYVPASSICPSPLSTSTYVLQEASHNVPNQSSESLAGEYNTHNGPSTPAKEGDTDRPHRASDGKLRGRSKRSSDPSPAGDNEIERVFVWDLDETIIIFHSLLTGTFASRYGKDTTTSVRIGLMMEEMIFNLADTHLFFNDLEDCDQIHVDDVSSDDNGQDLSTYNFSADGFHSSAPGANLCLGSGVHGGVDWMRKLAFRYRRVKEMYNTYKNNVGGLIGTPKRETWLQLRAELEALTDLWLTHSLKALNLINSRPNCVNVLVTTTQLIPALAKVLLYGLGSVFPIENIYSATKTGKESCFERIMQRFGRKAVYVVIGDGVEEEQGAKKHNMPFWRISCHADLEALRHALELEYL
Target sequence (Q15475 whole entry, looked up): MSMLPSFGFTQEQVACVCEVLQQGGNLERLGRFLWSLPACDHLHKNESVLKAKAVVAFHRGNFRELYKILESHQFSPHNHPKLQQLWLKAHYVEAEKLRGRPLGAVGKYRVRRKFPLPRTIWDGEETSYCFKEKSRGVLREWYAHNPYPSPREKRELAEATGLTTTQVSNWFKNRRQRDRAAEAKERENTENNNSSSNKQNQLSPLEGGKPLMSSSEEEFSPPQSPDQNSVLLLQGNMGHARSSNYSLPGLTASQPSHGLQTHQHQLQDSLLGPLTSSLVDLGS
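Compounds are tested against tagged Six1 and Eya2 proteins bridged by glutathione donor and nickel acceptor beads; after a one-hour incubation at 37 °C without light, AlphaScreen emission is recorded.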
D2 agonist: Beta-Arrestin HTS for Positive Allosteric Modulators of the Human D2 Dopamine Receptor: Agonists; DiscoveRx PathHunter D2 beta-arrestin, luminescence, 90 min; 100% = 57 uM dopamine signal; activation, % (concentration not given with the values); hit rate 0.084% among 360,000; AID 624465, 2012; in the data active = activation above about 40%; inconclusive = about 15% to 40%; inactive = below about 15%; further: compound concentration not given in the record; the text of the record calls up to 30% inactive
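Agonist mode: compounds alone added to overnight-plated D2 PathHunter cells for 90 min at 37 C, with 57 uM final dopamine (EC100) defining full response. Beta-arrestin recruitment detected by chemiluminescent reagent, read after 1 h at ambient temperature.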
* marks the source's active call; other numbers are inactive results; ? = inconclusive; nt = no result given; [ ] = dose if it differs, or a comment. This is a random part of the collection. About 1.4% of those tested had a hit in this group.

Start of the data: the first 2 compounds as a preview:
SMILES	gsp antag	CtBP-E1A blk	D2 PAM	gsp ag	Six1-Eya2 blk	D2 agonist
O=C(CN(C(=O)c1ccc(Cl)cc1)N1C(=O)C2CCCCC2C1=O)c1ccc(Cl)cc1 (stereo not drawn)	-16%	0	-9	-48%[inhibitor]	3	-1.0
Cc1ccc2c(c1)CCCN2CC(=O)Nc1cccc(S(=O)(=O)N2CCCC2)c1	-2%	-8	0	-1%	-9	-1.7

The listing, repeating the preview:
SMILES	gsp antag	CtBP-E1A blk	D2 PAM	gsp ag	Six1-Eya2 blk	D2 agonist
O=C(CN(C(=O)c1ccc(Cl)cc1)N1C(=O)C2CCCCC2C1=O)c1ccc(Cl)cc1 (stereo not drawn)	-16%	0	-9	-48%[inhibitor]	3	-1.0
Cc1ccc2c(c1)CCCN2CC(=O)Nc1cccc(S(=O)(=O)N2CCCC2)c1	-2%	-8	0	-1%	-9	-1.7
O=c1oc2cc(S(=O)(=O)NCCCO)ccc2c2ccc(S(=O)(=O)NCCCO)cc12	7%	5	-7	4%	2	-3.2
COc1ccccc1CN1CN(S(=O)(=O)c2ccccc2)c2nc3ccccc3nc21	-23%	-24	-12	14%	-12	6.4
CC(C)Cc1ccc(CN2CCCC(NC(=O)CCN3CCCCC3=O)C2)cc1 (stereo not drawn)	6%	3	-8	-8%	3	-0.3
COc1ccc(/C=N/NC(=O)CNC(=O)c2ccncc2)cc1OC	11%	-1	-10	7%	-3	1.0
O=C(COC(=O)C1CCC(=O)N1)Nc1ccc(Cl)cc1Cl (stereo not drawn)	8%	-2	11	21%[15.4 µM]	4	1.1
O=C([O-])c1cc(-c2ccccc2)cc(-c2ccccc2)[n+]1CCc1ccc(Cl)cc1	-7%	-24	-14	nt	-7	-1.0
CSc1ccc(-c2c(C#N)c(N)nc3c2c(C)nn3-c2ccccc2)cc1	16%	10	-24	0%	11	-3.2
COc1cc(OC)c(CN2CCc3c([nH]c4ccccc34)C2)cc1Br	15%	-23	-9	-29%	-22	4.7
CCOC(=O)c1ccc(Nc2nc(=O)c3cccnc3s2)cc1	-9%	5	-4	28%	0	-0.7
CCOCCCNC(=O)C(c1ccccc1)N(Cc1cccs1)C(=O)CNC(=O)c1ccccc1 (stereo not drawn)	2%	11	-5	-9%[15.4 µM]	-3	0.0
Cc1cc(C)c(S(=O)(=O)C(C)C)c(=O)[nH]1	-4%	4	-3	8%[15.4 µM]	-1	-0.8
Cc1ccc(N=N/C(=C\O)C(=O)c2ccc(Cl)cc2)cc1	-24%	nt	-6	-2%[15.4 µM]	-25	1.6
Cc1cc(NC(=O)CSc2nnc(-c3ccccc3F)n2C)no1	1%	-6	-2	?	6	-2.3
CCc1c(C(=O)N2CCOCC2)csc1C	15%	13	-8	-45%[inhibitor]	5	1.0
COc1ccc(OCc2cc(C(=O)N3CCN(CC4CC4)CC3)no2)c(Cl)c1	4%	0	-26	9%	-1	4.4
COc1cc2nc(N(CCCN(C)C)C(=O)c3ccc(S(=O)(=O)N(C)C4CCCCC4)cc3)sc2cc1OC	-4%	-7	-15	1%[15.4 µM]	-22	-4.6
CC1(Cc2ccccc2C#N)C(=O)Nc2cc(-c3ccccc3Cl)ccc21 (stereo not drawn)	nt	-8	-7	nt	-8	4.5
COc1cccc(OCCSc2nc(C)c(Cc3ccccc3)c(=O)[nH]2)c1	-8%	4	-5	9%	1	-0.2
COc1ccc(-c2cnnc(N/N=C/c3c(C)nn(-c4ccccc4)c3Cl)n2)cc1	5%	-24	-3	2%	4	0.0
COC(=O)c1ccc(C(=O)OC)c(NC(=O)CN2CCN(c3ccccc3OC)CC2)c1	-24%	0	-21	?	0	-0.3
Cc1nn(-c2cccc(Cl)c2)c2nc(-c3ccco3)cc(C(=O)O)c12	?	-14	-18	2%	-8	-3.6
CCOc1ccccc1NC(=O)c1cc(=O)c2ccccc2o1	3%	nt	-1	13%	15	0.8
Cc1ccc(-n2nnc3c(SCC(=O)NCC4CCCO4)ncnc32)cc1 (stereo not drawn)	-6%	4	-2	16%	9	3.5
S=C(NCc1ccccn1)Nc1cccc(Cl)c1	-14%	-3	14	6%	4	1.4
CC(=O)Nc1ccc(-n2c(C)nc(=O)c(-c3ccccc3)c2C)cc1	-6%	-5	-5	-14%	9	1.7
Cc1ccn2c(C(=O)CSc3ccccc3Cl)c(C)nc2c1	3%	-2	-20	-3%	-4	-4.6
Cc1nn(-c2ccc(F)cc2)c(C)c1/C=C/C(=O)N1CCNC(=O)C1	4%	nt	23	22%	3	3.6
CC1(C)CCC[C@]2(C)[C@H]3Cc4cc(O)ccc4O[C@]3(C)CC[C@@H]12	-5%	-23	13	nt	-25	4.7

A second format for some results above.
Order of values: gsp antag | CtBP-E1A blk | D2 PAM | gsp ag | Six1-Eya2 blk | D2 agonist
> COc1cccc(OCCSc2nc(C)c(Cc3ccccc3)c(=O)[nH]2)c1
  -8% | 4 | -5 | 9% | 1 | -0.2
> COc1ccc(-c2cnnc(N/N=C/c3c(C)nn(-c4ccccc4)c3Cl)n2)cc1
  5% | -24 | -3 | 2% | 4 | 0.0
> COC(=O)c1ccc(C(=O)OC)c(NC(=O)CN2CCN(c3ccccc3OC)CC2)c1
  -24% | 0 | -21 | ? | 0 | -0.3
> Cc1nn(-c2cccc(Cl)c2)c2nc(-c3ccco3)cc(C(=O)O)c12
  ? | -14 | -18 | 2% | -8 | -3.6
> CCOc1ccccc1NC(=O)c1cc(=O)c2ccccc2o1
  3% | nt | -1 | 13% | 15 | 0.8
> Cc1ccc(-n2nnc3c(SCC(=O)NCC4CCCO4)ncnc32)cc1 (stereo not drawn)
  -6% | 4 | -2 | 16% | 9 | 3.5
> S=C(NCc1ccccn1)Nc1cccc(Cl)c1
  -14% | -3 | 14 | 6% | 4 | 1.4
> CC(=O)Nc1ccc(-n2c(C)nc(=O)c(-c3ccccc3)c2C)cc1
  -6% | -5 | -5 | -14% | 9 | 1.7
> Cc1ccn2c(C(=O)CSc3ccccc3Cl)c(C)nc2c1
  3% | -2 | -20 | -3% | -4 | -4.6
> Cc1nn(-c2ccc(F)cc2)c(C)c1/C=C/C(=O)N1CCNC(=O)C1
  4% | nt | 23 | 22% | 3 | 3.6
> CC1(C)CCC[C@]2(C)[C@H]3Cc4cc(O)ccc4O[C@]3(C)CC[C@@H]12
  -5% | -23 | 13 | nt | -25 | 4.7

Later entries:
SMILES	gsp antag	CtBP-E1A blk	D2 PAM	gsp ag	Six1-Eya2 blk	D2 agonist
COc1ccc(OC)c(NC(=O)CCNS(=O)(=O)c2cccs2)c1	-3%	0	-17	20%	13	-2.0
O=C(NC(=S)Nc1ccc(N2CCOCC2)cc1)c1ccco1	-24%	6	6	14%	0	-1.2
COc1ccc(C2CC(c3ccccc3)=NN2C(=O)COC(=O)/C=C/c2ccc(O)c(OC)c2)cc1 (stereo not drawn)	-6%	nt	-18	21%	-17	-5.7
O=C(Nc1cc(Cl)ccc1Cl)c1cc(-c2ccco2)on1	10%	5	-5	-1%	0	-3.0
Cc1ccc(S(=O)(=O)NC(=O)C2(C)CCN2C(=O)c2ccccc2)nc1 (stereo not drawn)	nt	0	-10	nt	12	-4.7
CCN1CCCC1CNC(=O)Cn1cnc2ccc(S(=O)(=O)N3CCC(C)CC3)cc2c1=O (stereo not drawn)	15%	1	-4	3%	3	-1.8
O=C(NNS(=O)(=O)c1ccccc1)c1cccc([N+](=O)[O-])c1	3%	8	-4	6%[15.4 µM]	-4	6.7
O=C(/C=C/c1ccc(O)cc1)c1c(O)cc(O)cc1O	-5%	2	-2	-30%[inhibitor]	1	2.0
Cc1ccc(C)c(S(=O)(=O)N2CCCOC2CNC(=O)C(=O)NCc2ccccc2)c1 (stereo not drawn)	-2%	7	-6	-50%[inhibitor]	5	1.2
COc1ccc(/C=C(/NC(=O)c2ccco2)C(=O)N2CCc3ccccc32)cc1OC	0%	-3	-6	-1%	1	-6.0
N#C/C(=C\c1ccc(F)c(Br)c1)C(=O)NC1CC1	16%	1	1	5%	-5	-4.5
O=[n+]1c2c(n([O-])c3cc(F)c(N4CCCC4)cc31)CCC2	40µM*	-25	14	21%	-8	-3.0
COc1cc(NS(=O)(=O)c2c(C)oc3c(F)c(F)c(F)c(F)c23)cc(OC)c1OC	-21%	4	2	31%	1	2.4
CCOC(=O)C(C)Sc1nc(N2CCOCC2)c2c(c1C#N)CC(C)(C)OC2 (stereo not drawn)	-18%	-4	-6	27%[15.4 µM]	0	-1.6
N#CCCN(C(=O)CN1c2cccc3cccc(c23)S1(=O)=O)c1ccccc1	-2%	-3	-9	9%[15.4 µM]	0	-3.6
CN(C)c1cc(N/N=C/c2ccc(Cl)cc2)nc(N(C)C)n1	-2%	-13	-8	-2%	-13	-2.5
CCCS(=O)(=O)NC(=O)C1(C)CCN(C(=O)c2ccc(C(F)(F)F)cc2)C1 (stereo not drawn)	nt	-22	-7	nt	9	-4.2
O=S1(=O)c2ccc(Br)cc2N2CCC[C@H]2CN1Cc1ccccc1	-1%	3	-15	nt	7	-1.5
C=CCSc1nnc2c(n1)OC=Nc1ccccc1-2	9%	-8	-5	20%	-6	-5.2
COc1ccc(-c2nc3ccc(C)cn3c2CC2CCCCC2)cc1OC	nt	-7	-8	nt	-12	-5.2
COc1ccc(NC(=O)C(CC(C)C)NC(=O)C2CCCCC2)c(OC)c1 (stereo not drawn)	-3%	18	-9	52%	29	-0.1
O=C(N/N=C/c1cc([N+](=O)[O-])ccc1O)c1ccncc1	1%	nt	-6	-4%	-90*	-2.5
O=C(c1ccccc1)C1CCN(c2ncccc2[N+](=O)[O-])CC1	0%	-11	-3	-1%[15.4 µM]	-18	3.8
CC(C)OC(=O)C[N+](C)(C)CCN1C(=O)C2C(c3ccccc3)C=CC(c3ccccc3)C2C1=O (stereo not drawn)	2%	12	-9	-34%[inhibitor]	6	-1.9
CCOC(=O)C(CC)(CC)/C(C)=N/NC(=O)CC#N	6%	-1	-4	-5%	-3	-2.3
CCN1C(=O)/C(=C2\SC(=S)N(CCCOC)C2=O)c2ccccc21	-1%[15.4 µM]	-3	21	7%	7	5.4
O=C(CSc1nnc(-c2ccccn2)n1Cc1ccco1)c1ccc(Cl)cc1	-4%	-18	1	1%	-22	1.2
Cc1ccccc1-c1nc(Cc2ccccc2)no1	8%	60	-10	0%	77	-5.7
COc1ccc(C(=O)c2ccccc2CN2C(=O)c3ccccc3C2=O)cc1	-2%	13	0	27%	-2	-7.2
Cc1ccc2nc(SCC(=O)Nc3ccc4[nH]c(=O)[nH]c4c3)[nH]c2c1	2%	-1	-10	25%[15.4 µM]	-3	3.7
Cc1ccc(OC(C)C(=O)Nc2cc(C)on2)cc1 (stereo not drawn)	-1%	3	-16	0%	0	-2.0
